Screening results as filed in PubChem.
Rce1 inh: yeast Rce1p protease inhibitors, primary screen, biochemical, fluorescence, cell-free homogeneous. yeast membranes, quenched prenylated peptide cleavage fluorescence. calls only. 290,000 compounds, 0.27% hits;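 active = fall in fluorescence gain of 50% or more versus controls, with final raw signal at or below 3038400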;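 also: plate controls were neutral control wells for no effect and wells lacking membranes for full effect; tested at 10 µM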
Target sequence (Q03530 whole entry, looked up): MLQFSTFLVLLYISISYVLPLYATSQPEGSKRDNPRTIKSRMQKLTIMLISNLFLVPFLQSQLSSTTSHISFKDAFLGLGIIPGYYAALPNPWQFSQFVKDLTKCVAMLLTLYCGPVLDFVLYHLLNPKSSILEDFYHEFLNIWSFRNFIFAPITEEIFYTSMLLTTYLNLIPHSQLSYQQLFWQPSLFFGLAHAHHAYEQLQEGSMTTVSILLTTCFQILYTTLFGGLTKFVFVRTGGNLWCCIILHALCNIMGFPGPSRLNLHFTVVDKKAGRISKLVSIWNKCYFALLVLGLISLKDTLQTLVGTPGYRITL
Env fusion inh: inhibitors of HIV-1 Env-driven cell-cell fusion, primary screen, HeLa-JRFL effector, CEM21 target cells, luciferase. inhibition, % at 12.3 µM. 360,000 compounds, 1.1% hits;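 active = mean replicate inhibition score of at least 50 and every replicate individually at or above 50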;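 also: 0% = plate neutral controls and 100% = maraviroc near 300 nM; one replicate is shown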
eIF4H inh: human eIF4H binding inhibitors, primary screen, translation initiation inhibitor project, biochemical, uHTS, fluorescence polarization; Eukaryotic translation initiation factor 4H (Homo sapiens), Q15056; inhibition, % at 35 µM; 290,000 compounds, 0.94% hits; eIF4H fluorescence polarization binding assay;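 active = 50% or more with normal probe brightness, or confirmed in later tests; about a fifth of its hits are not listed in these tables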;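 also: calls also rest on retests at 20 µM and on dose response follow-up; 0% = protein and probe with vehicle and 100% = probe without protein; strong numbers were not always called active; many hits fall short of the cut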
CSC inhib: cancer stem cell viability inhibitors, primary screen, luminescence | cancer stem cell-like cells viability | inhibition, % at 7.5 µM | 300,000 compounds, 1.1% hits | AID 2717, 2010;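 active = mean at 75% or more and at least half the replicates too; tested in HMLE shEcad cells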;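 also: 0% = median of negative and 100% = median of positive control wells; the first replicate is given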
UUG fidelity: modulators of yeast start codon fidelity, primary screen, whole organism, S. cerevisiae, single point, plate reader; activity score, % at 18.7 µM; S. cerevisiae UUG-firefly luciferase reporter, luminescence/redox ratio; AID 602363, 2012; 350,000 compounds, 0.13% hits;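 active = replicate mean at a twofold rise or more, about +100% in these data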;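 also: firefly luciferase made from a UUG start codon reports start codon fidelity; reporter light over untreated wells divided by growth signal over untreated wells; some hits fall short of that in this replicate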
PABP polyA inh: PABP poly(A) RNA binding inhibitors, primary screen, biochemical, fluorescence polarization, uHTS | Polyadenylate-binding protein 1 (Homo sapiens), P11940 | inhibition, % at 35 µM | 290,000 compounds, 1% hits;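 active = 50% or more with normal probe brightness, or confirmed in later tests; about a fifth of its hits are not listed in these tables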;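 also: calls also rest on retests at 20 µM and on dose response follow-up; controls were probe without protein and protein plus probe with vehicle; some compounds called inactive have numbers as strong as hits; many hits fall short of the cut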
MT1-MMP act inh: blockers of MT1-MMP proenzyme processing, primary screen, HT1080 RFP-PRO-GFP cells, GFP/RFP fluorescence. Matrix metalloproteinase-14 (Homo sapiens), P50281. GFP/RFP ratio change, % at 20 µM. AID 651647, 2012. GFP/RFP ratio fluorescence, overnight; percent of plate control window, DMSO zero. 360,000 compounds, 0.061% hits;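 active = GFP/RFP ratio change of at least 30% with cell ATP level not reduced by more than half and red fluorescence within 50% of control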; also: strong numbers were not always called active
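Assay system: HT1080 cells carrying an RFP-PRO-GFP reporter | Dosing: Single dose of 20 µM compound, 1% DMSO final | Incubation: Cells overnight before dosing, compound overnight, 37 °C, 5% CO2 | Evaluation: GFP/RFP fluorescence ratio | Control set: DMSO and RFP-L50D-GFP cell wells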
eIF4H inh retest: further read-out of eIF4H inh, marked with its call; inhibition, %; compound at 20 µM; confirmation average;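 mean of two retest wells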
PABP polyA inh retest: recorded beside PABP polyA inh, whose call it bears; inhibition, %; compound at 20 µM; confirmation repeats;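 mean of two retest wells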
MT1-MMP act inh RFP: second read-out of MT1-MMP act inh, no call of its own (marks repeat the call); RFP signal change, %; measured here: RFP expression control read;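 0 = vehicle wells; hits needed this value within 50% of zero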
An asterisk follows results filed as active; i = inactive; · = not tested or not shown. Not all compounds are listed, so the mix of outcomes need not match the whole.

SMILES	Rce1 inh	Env fusion inh	eIF4H inh	CSC inhib	UUG fidelity	PABP polyA inh	MT1-MMP act inh	MT1-MMP act inh RFP	others
CCCCCn1c(CNC(=O)COC)nc2ccccc21	i	-65	7	-20	-14	-2	0	-1
COc1ccc([C@H]2CC(=O)C=C(c3ccc(Cl)cc3C)C2)cc1	·	7	·	57	-11	·	3	-2
Cc1ccsc1-c1nc(-c2ccccc2)c(-c2ccccc2)[nH]1	i	-262	-3	5	-9	-1	5	2
CCN(CC)S(=O)(=O)c1ccc2c(c1)nc(CCC(=O)OCC(=O)N1CCc3ccccc31)n2C	i	·	31	1	-51	21	-7	-3
O=C1NC2(CCCCCC2)C(=O)N1Cc1cccc(Cl)c1	i	3	-18	-14	4	4	3	-5
COc1cc(CC(=O)OCC(=O)c2ccc(F)cc2)cc(OC)c1OC	·	10	·	4	1	·	1	-1
Cc1ccc(S(=O)(=O)Nc2cccc(-n3cnnn3)c2)cc1C(=O)O	i	3	-2	-6	-3	11	-1	5
CCN(Cc1ccccc1)C(c1ccc(Cl)cc1)c1nnnn1C(C)(C)C (centres undefined)	i	·	-1	36	-16	3	-14	-19
CC(C)(C)S(=O)N1Cc2cc(C(=O)NCCCN3CCOCC3)nc(-c3cccc(-c4cc5ccccc5o4)c3)c2[C@@H]1CCO (some centres undefined)	·	35	·	·	-4	·	7	4
CCCCn1c(N)c(N(CC(C)C)C(=O)c2ccc(Br)s2)c(=O)[nH]c1=O	i	3	-9	-5	-2	4	-1	3
Cc1nc(-c2ccc(Cl)cc2)sc1C(=O)NNC(=O)C(C)C	i	0	-5	-15	-12	4	3	3
CC#CCCc1nc2ccccc2c(=O)n1N	i	-9	0	-3	·	0	-1	0
O=C(CSc1nnc(COc2cccc3ccccc23)o1)N1CCN(C(=O)c2ccco2)CC1	i	·	-10	1	6	-1	10	-2
c1ccc(CC[C@@H]2CC[C@@H](CCc3ccccc3)N2)cc1	·	-28	·	35	-14	·	3	4
COc1ccc(-c2nnc3ccc(SCc4ccccc4)nn23)cc1	i	-13	9	-11	-19	-1	-6	-5
CCCNC(=O)NC1C(NC(=O)NCCC)N(C)C(=O)N1C (centres undefined)	i	·	-9	3	-11	10	2	6
Cc1sc2nc(N3CCOCC3)[nH]c(=O)c2c1-c1ccccc1	i	11	1	-14	·	-2	4	-2
Cc1sc2ncnc(N3CCC(C(=O)Oc4cccc(Cl)c4Cl)CC3)c2c1C	i	1	9	-11	-6	-11	-1	0
CCCCn1c(SCc2nc3ccccc3s2)nc2ccccc2c1=O	i	40	13	30	-4	1	-9	-12
CCc1cccc(CC)c1NC(=O)c1ccc(-n2cncn2)nc1	i	1	-11	5	·	7	-3	-8
Cn1c(=O)c2c(c3ccccc31)OC(C)(C)CC2	i	·	-1	3	·	1	0	-1
COc1ccc(/C=C/C(=O)OCC(=O)Nc2ccc(C)cc2)cc1S(=O)(=O)N1CCOCC1	i	·	-9	2	-4	-2	7	7
Cc1ccc(S(=O)(=O)N2CCOCC2)cc1NC(=O)COc1ccccc1Cc1ccccc1	·	13	·	-6	-4	·	6	-17
CCOC(=O)CSc1nnc(CNC(=O)c2ccc(S(=O)(=O)N(C)C)cc2)n1C	i	-5	-6	18	·	-10	-2	4
O=S1(=O)N=C2CCCCCN2C(c2ccc(Cl)cc2)N1 (centres undefined)	i	22	0	-10	·	-11	1	-3
CN(C)S(=O)(=O)Oc1ccccc1C(=O)Nc1cccc(C(F)(F)F)c1	·	-20	-10	8	-11	2	0	0
COc1ccc(-c2oc(NC(=O)CCl)c(C#N)c2-c2ccc(OC)cc2)cc1	i	-21	-10	3	308*	12	-7	-11
COc1cc(NC(=S)N2CCOCC2)c(OC)cc1Cl	i	-7	-5	-11	-13	-6	3	2
CCCCN(C)Cc1c(C)[nH]c2ccc(C)cc2c1=O	i	-24	-12	-8	-22	-8	3	2
CC(C)CN(CC(C)C)C(=O)CS(=O)(=O)Cc1ccccc1	i	·	0	·	·	0	11	7
CSc1ccc(C2NC(=O)c3ccccc3N2)cc1 (centres undefined)	i	-69	·	17	-13	·	-4	-13
COc1ccc(C2C(C(=O)N3CCOCC3)=C(C)NC3=C2C(=O)CC(C)(C)C3)cc1O (centres undefined)	i	-18	-7	-8	·	4	5	4
COC(=O)C1CCN(C(=O)Cc2ccccc2OC)CC1	i	5	2	4	·	-16	-1	5
CCCOc1ccc(CCc2n[nH]c(=S)n2-c2ccccc2)cc1	i	-5	-8	-17	·	-4	2	-4
Cc1cc(C)c2c(N)c(-c3nnc(SCc4ccc(Cl)cc4)n3C)sc2n1	i	-6	-7	7	·	-6	2	-4
O=C(CN1CCN(CC(=O)Nc2ccc(OCc3ccccc3)cc2)CC1)Nc1ccc(F)cc1	i	·	·	-7	3	·	3	-3
CC(C)NC(=S)N1CCN(Cc2ccc3c(c2)OCO3)CC1	i	-2	6	1	·	1	-1	2
O=C(CSc1ccccc1)Nc1nnc(C2CC2)s1	i	-1	4	0	-10	16	3	6
COc1ccccc1-c1n[nH]c(=S)n1Cc1ccccc1	i	15	0	-14	-20	1	0	3
CC(=O)NC1C(=O)N=C(SCC(=O)NC(C)c2ccccc2)NC1=O (centres undefined)	i	·	-5	-12	1	-5	0	2

The closing 6 entries of the section above open the next one.
SMILES	Rce1 inh	Env fusion inh	eIF4H inh	CSC inhib	UUG fidelity	PABP polyA inh	MT1-MMP act inh	MT1-MMP act inh RFP	others
Cc1cc(C)c2c(N)c(-c3nnc(SCc4ccc(Cl)cc4)n3C)sc2n1	i	-6	-7	7	·	-6	2	-4
O=C(CN1CCN(CC(=O)Nc2ccc(OCc3ccccc3)cc2)CC1)Nc1ccc(F)cc1	i	·	·	-7	3	·	3	-3
CC(C)NC(=S)N1CCN(Cc2ccc3c(c2)OCO3)CC1	i	-2	6	1	·	1	-1	2
O=C(CSc1ccccc1)Nc1nnc(C2CC2)s1	i	-1	4	0	-10	16	3	6
COc1ccccc1-c1n[nH]c(=S)n1Cc1ccccc1	i	15	0	-14	-20	1	0	3
CC(=O)NC1C(=O)N=C(SCC(=O)NC(C)c2ccccc2)NC1=O (centres undefined)	i	·	-5	-12	1	-5	0	2
O=C(NCc1ccccc1)NC(=O)c1ccc(Cl)cc1	i	-30	72	-7	-21	2	-3	0	eIF4H inh retest=-7;PABP polyA inh retest=12
N#C/C(=C\c1ccc(OCc2ccccc2)cc1)C(=O)Nc1nc2c(s1)CCN(Cc1ccccc1)C2	i	-27	-4	33	-11	-4	-17	0
CC(C(=O)Nc1ccccn1)N1C(=O)C2C3C=CC(C3)C2C1=O (centres undefined)	i	-29	0	-13	-2	2	1	-6
Cc1ccc(-c2cc(C(=O)Nc3cccc(S(=O)(=O)N(C)C)c3)c3ccccc3n2)o1	i	22	1	0	-2	1	-3	1
O=C(NC1CCCc2ccccc21)c1ccc([N+](=O)[O-])cc1 (centres undefined)	i	-5	1	-4	-4	0	2	0
COc1ccc(NS(=O)(=O)c2ccc(N3CCOCC3)c(NC(=O)C(C)C)c2)cc1	i	9	-6	6	3	-15	-7	-23
COc1ccc(C(=O)Nc2cc(C)c(NC(=O)c3ccccn3)cn2)cc1	i	-49	-10	11	-14	0	2	-8
COc1cc(NC(=O)c2cccc(C)c2)c(Cl)cc1[N+](=O)[O-]	i	·	6	12	·	3	1	0
CCc1ccc(NC(=O)CNC(=O)[C@@H]2Cc3ccccc3CN2)cc1	i	1	-3	-21	10	-1	3	5
COc1ccc(Cl)cc1-c1nc(SCC(=O)NCCN2C(=O)CSC2=O)n[nH]1	i	·	1	-26	·	-2	4	3
CCN(CC)c1ccc(Nc2nc(Cl)ncc2Br)cc1	i	16	-6	3	-3	-2	-1	-3
COc1ccc(CC(=O)OCC(=O)NC(=O)NC23CC4CC(CC(C4)C2)C3)cc1	i	-15	-7	12	-3	1	3	-4
COC(=O)[C@]1(Cc2ccccc2)N[C@H](CN(C)S(=O)(=O)c2ccc(-c3ccccc3)cc2)[C@@H]2C(=O)N(C)C(=O)[C@@H]21	·	22	·	·	-33	·	1	1
CC(=O)Nc1ccc(N(C(=O)c2ccccn2)C(C(=O)NC2CCCCC2)c2ccc(F)cc2)cc1 (centres undefined)	i	-21	0	1	-17	2	0	8
CCOC(=O)CSC1=C(C#N)C(c2ccco2)C(C(=O)Nc2cccc(C(F)(F)F)c2)=C(C)N1 (centres undefined)	i	-26	-14	-2	·	-10	-9	2
CCN1C(=NCC(C)C)N[C@@H](c2cccc(C(F)(F)F)c2)C(C(=O)OC)=C1C	i	5	·	6	1	·	-3	1
CN(C(=S)Nc1ccc(SC(F)F)cc1)c1ccc(O)cc1	i	2	61	-1	·	2	3	7	eIF4H inh retest=-9;PABP polyA inh retest=8
COc1ccc2nc(Nc3nc(C)c(C(C)=O)s3)sc2c1	i	-172	18	18	-9	1	12	-4
CN(CC1CCOCC1)C(=O)CC1C(=O)NCCN1CC(c1ccccc1)c1ccccc1 (centres undefined)	i	-3	-6	1	-7	9	-3	-2
COc1ccc(/C(C)=N/NC(=O)CNC(=O)COc2ccccc2)c(OC)c1	i	-3	-8	-18	-15	-12	-2	-5

Sorted by heavy-atom count (highest first): some entries from above.
SMILES	Rce1 inh	Env fusion inh	eIF4H inh	CSC inhib	UUG fidelity	PABP polyA inh	MT1-MMP act inh	MT1-MMP act inh RFP	others
COC(=O)[C@]1(Cc2ccccc2)N[C@H](CN(C)S(=O)(=O)c2ccc(-c3ccccc3)cc2)[C@@H]2C(=O)N(C)C(=O)[C@@H]21	·	22	·	·	-33	·	1	1
N#C/C(=C\c1ccc(OCc2ccccc2)cc1)C(=O)Nc1nc2c(s1)CCN(Cc1ccccc1)C2	i	-27	-4	33	-11	-4	-17	0
COc1ccc(C(=O)Nc2cc(C)c(NC(=O)c3ccccn3)cn2)cc1	i	-49	-10	11	-14	0	2	-8
CCCCn1c(SCc2nc3ccccc3s2)nc2ccccc2c1=O	i	40	13	30	-4	1	-9	-12
CC(C)CN(CC(C)C)C(=O)CS(=O)(=O)Cc1ccccc1	i	·	0	·	·	0	11	7
c1ccc(CC[C@@H]2CC[C@@H](CCc3ccccc3)N2)cc1	·	-28	·	35	-14	·	3	4

Next part
SMILES	Rce1 inh	Env fusion inh	eIF4H inh	CSC inhib	UUG fidelity	PABP polyA inh	MT1-MMP act inh	MT1-MMP act inh RFP	others
Cc1ccc(-c2csc(N(CCCN(C)C)C(=O)c3ccco3)n2)cc1	i	0	-2	10	·	-5	0	2
CC(=O)N(c1ccccc1)c1c(F)c(F)c(F)c(F)c1F	i	-43	0	-22	1	-14	1	4
O=C(COC(=O)c1ccc(F)cc1)Nc1ccccc1N1CCOCC1	i	·	-5	1	-5	-6	-4	4
Cc1ccc(C(=O)CCC(=O)OCC(=O)N(C)c2c(N)n(Cc3ccccc3)c(=O)[nH]c2=O)cc1	·	-27	·	-5	0	·	-5	0
